# Screening results from PubChem BioAssay.
# HPGD block: HPGD (human) dehydrogenase inhibition; P15428; AID 894; hit rate 4.3% among 150,000; purified HPGD, NADH fluorescence kinetic, PGE2 substrate; Potency, µM, inactives show at the highest dose activity change, negative = inhibition, most hits filed as inhibitors; active = well fitted inhibition curve with a large enough effect (not every such curve was filed as active); inconclusive = small, poorly fitted or top-dose-only effect, or another doubt; inactive = no such curve, though single readings can be large or run the other way;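 further: top concentration of the series not given in the record; plate controls included wells without enzyme; inactives centre near -10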
# Target sequence (P15428 whole entry, looked up): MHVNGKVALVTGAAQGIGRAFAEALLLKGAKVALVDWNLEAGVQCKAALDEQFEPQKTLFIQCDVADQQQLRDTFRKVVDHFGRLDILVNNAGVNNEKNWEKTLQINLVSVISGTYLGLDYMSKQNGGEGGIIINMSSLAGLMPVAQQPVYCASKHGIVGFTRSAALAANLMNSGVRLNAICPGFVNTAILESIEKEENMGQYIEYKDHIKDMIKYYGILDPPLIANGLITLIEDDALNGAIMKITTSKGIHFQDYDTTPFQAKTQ
#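 20 nM HPGD preincubated 15 min at room temperature with compound in 50 mM Tris-HCl pH 8, 0.01% Tween 20. Started with 1 mM NAD+ and 30 uM prostaglandin E2; NADH fluorescence (360/450 nm) read 5 times over 30-s intervals, last minus first.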
# Starred values were filed as active, the others as inactive; ? = inconclusive; & = joins results of further samples. On the % scale 0 is the no-effect control and ±100 the full control effect; potency means the concentration at half of the fitted maximal effect. The list is partial. The share of hits here may be higher or lower than overall.
Structure | HPGD block
C=CCn1c(N)cc(=O)nc1SCC(=O)NC(C)c1ccccc1 (configuration not stated) | -5.9%
Cn1cc(Br)c(C(=O)NC(=S)N2CCN(c3ccccn3)CC2)n1 | -10.8%
CC(C)NC(=O)c1ccc(-c2cc(C(F)(F)F)ccc2Cl)o1 | -8.9%
Cc1ccc(Cn2nnc(C(=O)Nc3cc(C)ccc3C)c2N)cc1 | -8.8%
O=C(Nc1ccc2c(c1)OCO2)c1ccc(Br)o1 | -28.2%
COc1ccc(N=C2C(=Nc3ccc(OC)cc3)N(c3ccc(OC)cc3)C(=S)N2C)cc1 | -12.3%
COc1cccc(CC(NC(C)=O)C(=O)NC2CCN(c3nc(C)cc(C)c3C#N)CC2)c1 (configuration not stated) | ?
Cc1cc(=O)oc(C)c1C(=O)OCC(=O)c1ccc2ccccc2c1 | ?
COc1ccc2c(c1)c(C(=O)CN1CCOCC1)c(C)n2C | -12.6%
CC(=O)N1C(=O)C2(C(C#N)=C(N)Oc3cc(C)oc(=O)c32)c2ccccc21 (configuration not stated) | 2.0%
COc1ccc(S(=O)(=O)N2CCOC2CNC(=O)C(=O)NCCc2c[nH]c3ccccc23)cc1 (configuration not stated) | -6.8%
COc1ccc(/C(=C\C(=O)O)c2nccc3cc(OC)c(OC)cc23)cc1OC | 2.1%
COC(=O)C(Cc1ccc(OC(=O)c2ccc(Cl)cc2)cc1)N1Cc2ccccc2C1=O (configuration not stated) | -7.1%
CCOc1cc(/C=N/NC(=O)CN2CCOCC2)ccc1OCc1ccc(Cl)cc1 | -7.1%
CCOC(=O)N1CCN(S(=O)(=O)Cc2ccccc2)CC1 | -8.5%
CCCS(=O)(=O)N1CCN(Cc2ccccc2C(F)(F)F)CC1 | -6.7%
O=C(Nc1ccc2oc(-c3ccccc3)nc2c1)c1cccs1 | ?
Cc1ccc(-c2nc(=S)c3c(n2CC2CCCO2)CC(C)(C)OC3)cc1 (configuration not stated) | -19.1%
COc1ccc(-c2nc(C#N)c(N3CC(C)OC(C)C3)o2)cc1OC (configuration not stated) | ?
O=C(O)C1CCN(C(=O)c2ccc(Cl)cc2)CC1 | -4.9%
O=c1oc2ccccc2nc1/C=C(O)/C=C\c1ccccc1 | -15.3%
Cc1nn(-c2ccccc2)c(N)c1Sc1ccc([N+](=O)[O-])cc1 | 20µM*
COc1ccc2c(c1OC)C(=O)OC2CC(=O)c1ccc(O)c(O)c1 (configuration not stated) | ?
O=C(NC1(C(F)(F)F)NC(=O)N(Cc2ccccc2)C1=O)c1cccnc1 (configuration not stated) | -7.6%
COC(=O)COc1ccc(S(=O)(=O)NCC2CCCO2)cc1Cl (configuration not stated) | -13.0%
Cn1c(=O)c2c(nc(NCCCO)n2C/C=C/c2ccccc2)n(C)c1=O | -9.5%
COc1cc(C2C3C(=O)N(c4ccc(F)cc4)C(=O)C3ON2c2ccccc2)ccc1O (configuration not stated) | -12.1%
COc1cccc(NC(=O)CCC(=O)Nc2cccc(OC)c2)c1 | -7.1%
Cc1cccc(NC(=O)c2cnc3n(c2=O)CCS3)c1 | -16.5%
COc1ccc(C(=O)C(CO)Oc2ccccc2OC)cc1OC (configuration not stated) | -19.3%

# 2 of these compounds in another layout.
> COC(=O)COc1ccc(S(=O)(=O)NCC2CCCO2)cc1Cl (configuration not stated)
  HPGD block: -13.0%

> Cn1c(=O)c2c(nc(NCCCO)n2C/C=C/c2ccccc2)n(C)c1=O
  HPGD block: -9.5%

# New compounds follow:
Structure | HPGD block
O=C(/C=C/Nc1cccc(F)c1)c1ccco1 | -25.5%
O=C(c1ccc(Cl)cc1Cl)c1ncc(C(F)(F)F)cc1Cl | -18.9%
COC(=O)c1sccc1-n1cccc1C(=O)C(=O)N1CCCC1 | -1.0%
Cc1ccc(C)c(N(C(=O)CCC(=O)Nc2cc(C)on2)C(C(=O)NC2CCCC2)c2ccco2)c1 (configuration not stated) | -9.3%
O=S(=O)(Nc1ccc2c(c1)nc1n2CCN(Cc2ccccc2)C1)c1ccc(F)cc1 | ?
CCSc1nnc(NC(=O)c2csc(C)c2)s1 | -7.3%
COc1ccc(C(=O)Nc2nc(-c3cccs3)cs2)cc1 | -1.7%
CCCCN(CC(=O)NCc1ccc(Cl)cc1)S(=O)(=O)c1ccc2c(c1)OCCO2 | -6.3%
O=C(N/N=C/C1CCCCC1)c1cc(Cl)ccc1O | ?
C/C(=N\Nc1ccc(C(F)(F)F)cn1)c1ccc(S(=O)(=O)NCc2ccco2)cc1 | -20.9%
CC(C)CC(=O)NC(NCC1CCCO1)C(Cl)(Cl)Cl (configuration not stated) | -5.9%
NC(=O)c1ccc(C2SCC(=O)N2Cc2ccccc2)cc1 (configuration not stated) | -11.9%
CCC(C)(C)NC(=O)C(c1cccn1C)N(Cc1ccc(OC)cc1)C(=O)Cn1nnc2ccccc21 (configuration not stated) | -15.1%
CC1CCc2c(sc(NC(=O)CSc3ncnc4c3cnn4-c3ccccc3Cl)c2C#N)C1 (configuration not stated) | -12.9%
COCCN1C(=O)C(CC(=O)Nc2ccccc2)SC1=Nc1ccc(OC)cc1 (configuration not stated) | -6.0%
CCN(CC)c1ccc(NC(=O)c2ccccc2Br)cc1S(=O)(=O)Nc1ccccc1OC | 2.24µM*
CCC(=O)NC(NC(=S)Nc1ccccc1Br)C(Cl)(Cl)Cl (configuration not stated) | 1.2%
COC(=O)c1[nH]c2ccc(Cl)cc2c1NC(=O)CN1CCC(C(N)=O)CC1 | -20.2%
O=C(c1ccccc1)c1coc2ccc(O)c(CN3CCOCC3)c12 | -4.3%
COc1ccc(CNC(=O)C2CCN(S(=O)(=O)c3c(C)n[nH]c3C)CC2)cc1 | 1.1%
Cc1ccc(C2CC(c3ccccc3)=NN2c2ccccc2)o1 (configuration not stated) | ?
O=[N+]([O-])c1ccc2nc[nH]c2c1 | 3.0%
CC1CC(C)CN(S(=O)(=O)c2ccc(NC(=S)NC(=O)c3ccccc3)cc2)C1 (configuration not stated) | -26.7%
CCCNC(=O)Cn1cccc1C(=O)c1ccccc1 | -2.7%
O=C(CN1CCCC1)Nc1c2c(cc3c1CCC3)CCC2 | -13.8%
Clc1ccc2nc(CN3CCCc4ccccc43)cn2c1 | -8.6%
O=C(c1ccc(Cl)c(Cl)c1)N1CCC(=O)N(C(COCc2cccc(Cl)c2)Cc2ccccc2)CC1 (configuration not stated) | -9.7%
COc1cc(OC)c(C2N(C)c3ccccc3N2C)cc1OC | -11.3%
CCOC(=O)c1cn(CC)c2cc(Cl)c([N+](=O)[O-])cc2c1=O | -4.6%
Cc1ccc(-n2c(SCC(=O)NCc3ccco3)nnc2-c2cccnc2)cc1 | -17.3%
Cc1c(C(c2cc3c(cc2Br)OCO3)c2c(C)n(C)n(-c3ccccc3)c2=O)c(=O)n(-c2ccccc2)n1C | -3.2%
N#CCCN(C(=O)CSc1ccc2c(c1)OCCO2)c1ccc(F)cc1 | -3.0%
Cc1ccc(C)c2[nH]c(=O)c(C(c3nnnn3C3CCCC3)N3CCOCC3)cc12 (configuration not stated) | -23.0%
CC1CCCCC1NS(=O)(=O)c1ccc(-n2cnnn2)cc1 (configuration not stated) | 2.4%
Cn1c(Cc2ccccc2)nnc1SCC(=O)N1CCN(c2ccccc2)CC1 | -16.1%
CN1CCN(CCCNC(=O)c2cc3c(=O)n(C)c4ccccc4c3s2)CC1 | ?
O=Nc1c(O)n(Cc2c(Cl)cccc2Cl)c2ccccc12 | -2.3%
CCn1c(SCC(=O)Nc2nc(C)c(C)s2)nnc1-c1cccnc1 | -13.4%
CC(C)c1cc(N2CCC(=O)NC2=O)cc(C(=O)O)c1O | ?
COc1ccc(C(CNC(=O)COc2ccccc2C#N)N2CCOCC2)cc1 (configuration not stated) | 2.3%
Cc1nc2cnc(N3CCOCC3)nc2n(CCC#N)c1=O | ?
CS(=O)(=O)n1nc(-c2ccccc2)nc1N | -7.0%
CCn1c(SC/C=C/c2ccccc2)nnc1-c1cccs1 | -0.3%
O=C(CS(=O)CC(=O)N(c1ccccc1)C(C(=O)NC1CCCC1)c1cccs1)Nc1ccc(F)cc1 (configuration not stated) | -1.8%
CC(=O)Nc1ccccc1C(=O)N1CCc2ccccc21 | -0.2%
Cn1c(COc2ccccc2)nnc1SCc1cc(=O)[nH]c2ccccc12 | ?
CSc1nnc(-c2ccccc2N=Cc2c(C)[nH]n(-c3ccc4ccccc4c3)c2=O)c(=O)[nH]1 | 17.8µM*
CCCSC1=N/C(=C\c2ccsc2)C(=O)S1 | -5.0%
Cc1ccc(O)c(-c2cc(C(=O)NCc3ccccc3)[nH]n2)c1 | ?
CCOC(=O)c1sc(N(C)C(C)=O)nc1C | 2.3%
O=C(NC1CC1)c1cc(F)c(F)cc1Cl | 22.4µM*
Cc1ccc(Cl)cc1N1CCN(C(=O)C2CCC(=O)N2C(C)C)CC1 (configuration not stated) | -14.6%
[O-]/[N+](=C/c1cccnc1)c1ccc(Br)cc1 | -18.0%
COc1cccc(NC(=O)Cn2cnc3sc(C)c(S(=O)(=O)N4CCN(C)CC4)c3c2=O)c1 | -19.6%
CC1CSc2nnc(CCc3ccccc3)n21 (configuration not stated) | -21.4%
O=C(CCCOc1ccc(Cl)cc1Cl)N/N=C/c1ccccc1O | -18.3%
COc1cc(NC(=O)c2ccco2)c(OC)cc1NC(=O)Nc1cccc(Cl)c1 | -12.2%
COc1ccccc1N1CCN(C(=O)CSc2nc3ccccc3c(=O)n2CC2CCCO2)CC1 (configuration not stated) | -7.8%
CCOc1ccc2nc(NC(=O)C3CCCN(S(=O)(=O)c4cccs4)C3)sc2c1 (configuration not stated) | -13.1%
Cn1c(C(=O)NCC2CCCO2)cc2c(=O)[nH]c3ccccc3c21 (configuration not stated) | ?

# Going on with the list:
Structure | HPGD block
S=C1SCN(C2CCCCCCCCCCC2)CN1C1CCCCCCCCCCC1 | -4.5%
CN(C)C(CNc1nnnn1-c1ccccc1)c1ccco1 (configuration not stated) | -3.1%
CCN(CC)CCNC(=O)CCc1nn(C)c(=O)c2ccccc12 | -8.8%
Nc1n[nH]c(-c2ccccc2)c1-c1ccccc1 | -12.1%
Cc1ccc(C)c(N(CC(=O)NC2CCCCC2)C(=O)CCC(=O)Nc2ccccn2)c1 | -10.1%
CCOC(=O)C(C(=O)OCC)N(C#N)c1nc(C)cc(C)n1 | -16.2%
CCN(CC)S(=O)(=O)c1ccc(Cl)c(C(=O)Oc2cccnc2)c1 | -25.6%
C=CCSC1=C(C#N)C(c2ccccc2C)CC(=O)N1 (configuration not stated) | -13.3%
CC1CCN(C(=O)CCNC(=O)Cn2cnc3sc4c(c3c2=O)CCCC4)CC1 | -17.9%
COc1cccc(CSc2nc3ccccc3cc2C=O)c1 | 12.6µM*
CN(C)CCNC(=O)/C(=C/c1ccc(-c2cccc(Cl)c2)o1)NC(=O)c1ccccc1 | -9.4%
O=C1CC(c2ccccc2)CC(O)=C1C=Nc1cccc(Cl)c1 (configuration not stated) | -17.5%
FC(F)(F)c1nc2ccccc2nc1N/N=C/c1ccc(Cl)cc1 | -10.4%
O=C(NCCCCNC(=O)C1CCCC1)C1CCCC1 | -12.6%
Nc1nc(Br)c2c(F)cccc2c1-c1ccccc1 | -3.9%
COc1cc(C)c(C(N)=O)c(OC)n1 | -11.6%
COC(=O)c1ccccc1NC(=O)Nc1ccc2c(c1)OCO2 | -8.2%
O=C1C(C=NCc2ccccn2)=C(O)c2ccccc21 | -15.7%
Cc1nnc(SCCCn2c(N3CCCCC3)nc3c2c(=O)[nH]c(=O)n3C)s1 | -28.3%
O=C(Nc1ccccc1Cc1ccccc1)c1ccccc1NS(=O)(=O)c1ccc(Cl)s1 | -0.5%
Cc1onc(-c2ccccc2Cl)c1C(=O)Nc1ccc(-c2nnc3n2CCCCC3)cc1 | 15.8µM*
O=C(Nc1ccccc1)C1CCN(C(=O)c2ccccc2)CC1 | 1.0%
O=C(Oc1coc(CSc2ncccn2)cc1=O)c1ccc(Br)o1 | -13.3%
CCCCS(=O)(=O)Nc1ccc2ncn(C)c(=O)c2c1 | ?
CC(C)(C)NC(=O)CSc1nc(O)cc(=O)n1-c1ccccc1 | -13.5%
NC(Cc1ccc(O)c(O)c1)C(=O)O (configuration not stated) | ?
Cc1ccc(C(=O)N/N=C/c2sc(=O)n(Cc3cccc(C(=O)O)c3)c2Cl)cc1 | 28.2µM*
CCOc1ccc(NC(C)=O)cc1 | -2.9%&-11.8%&-8.8%
CC1CCN(c2nc(/C=C/c3ccccc3)nc3ccccc23)CC1 | -18.4%
OC(COc1ccc2ccccc2c1)Cn1cncn1 (configuration not stated) | ?
Cc1ccccc1C(=O)Nc1c2c(nc3ccccc13)CCCC2 | -2.2%
COc1ccc(NC(=O)NC(C(F)(F)F)C(F)(F)F)cc1 | -13.4%
CCCCn1ccnc1C(=O)c1cccc(S(=O)(=O)N2CC(C)CC(C)C2)c1 (configuration not stated) | -28.0%
CCc1c(-c2ccccc2)nc(N)c(C#N)c1-c1cccs1 | -18.7%
Cc1nn2cnc3sc4c(c3c2nc1=O)CCCC4 | -7.3%
Cc1csc(NC(=O)C2CCCN2C(=O)Oc2ccccc2)n1 (configuration not stated) | -5.3%

# Some of these compounds in order of their number in HPGD block, descending.
Structure | HPGD block
Cc1ccccc1C(=O)Nc1c2c(nc3ccccc13)CCCC2 | -2.2%
Cc1csc(NC(=O)C2CCCN2C(=O)Oc2ccccc2)n1 (configuration not stated) | -5.3%
Cc1nn2cnc3sc4c(c3c2nc1=O)CCCC4 | -7.3%
COc1ccc(NC(=O)NC(C(F)(F)F)C(F)(F)F)cc1 | -13.4%
CCCCn1ccnc1C(=O)c1cccc(S(=O)(=O)N2CC(C)CC(C)C2)c1 (configuration not stated) | -28.0%
